Assay outcomes (PubChem BioAssay)
GLA inh pH 4.5 = inhibitors of human alpha-galactosidase A at pH 4.5. P06280. purified enzyme, 4-MU-alpha-Gal fluorescence, pH 4.5. activity change, negative = inhibition, % at 105 µM. 230,000 tested, under 10 active. AID 1467; inconclusive = small, poorly fitted or top-dose-only inhibition, or a rising curve; inactive = flat fitted curve, though single readings scatter; no compound was filed as active;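 note: 0% = full activity with enzyme and -100% = basal without enzyme; dose as in the result columns while the protocol names 77 µM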
miR-21 FLuc = miR-21 reporter, rising signal; HeLa miR-21 FLuc reporter, luciferase, 48 h; Potency, µM (top dose mostly 38.3 µM), inactives show at the highest dose reporter change, positive = more light; 340,000 tested, under 10 active; active = well fitted rising curve with a large enough effect; inconclusive = small, poorly fitted or top-dose-only effect; inactive = no such curve, though single readings can be large or run the other way;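 note: % of control where 0% means no effect; miR-21 action dims this reporter so a rising signal means less miR-21 action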
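Using DMEM plus 10% FBS, HeLa miR-21-FLuc cells are incubated with test compounds (final up to about 40uM) for 48 hours; firefly luciferase signal is then imaged following reagent-mediated lysis.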
Rango-impB inh = prevents formation of the Rango-importin beta complex; Q14974; Rango CFP/YFP FRET sensor + importin beta, 45 min; Potency, µM (top dose mostly 92.2 µM), for the others: top-dose inhibition of complex formation; 340,000 tested, 0.031% active; active = rising FRET ratio curve, often small or poorly fitted; inconclusive = mostly compound fluorescence or quenching in the first reads; inactive = flat curves in all reads;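 note: potency is the fitted concentration of half-maximal effect; 0% = DMSO wells and 100% = buffer wells lacking importin beta; nearly all actives have a fitted effect of over 15% in size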
Target sequence (Q14974 whole entry, looked up): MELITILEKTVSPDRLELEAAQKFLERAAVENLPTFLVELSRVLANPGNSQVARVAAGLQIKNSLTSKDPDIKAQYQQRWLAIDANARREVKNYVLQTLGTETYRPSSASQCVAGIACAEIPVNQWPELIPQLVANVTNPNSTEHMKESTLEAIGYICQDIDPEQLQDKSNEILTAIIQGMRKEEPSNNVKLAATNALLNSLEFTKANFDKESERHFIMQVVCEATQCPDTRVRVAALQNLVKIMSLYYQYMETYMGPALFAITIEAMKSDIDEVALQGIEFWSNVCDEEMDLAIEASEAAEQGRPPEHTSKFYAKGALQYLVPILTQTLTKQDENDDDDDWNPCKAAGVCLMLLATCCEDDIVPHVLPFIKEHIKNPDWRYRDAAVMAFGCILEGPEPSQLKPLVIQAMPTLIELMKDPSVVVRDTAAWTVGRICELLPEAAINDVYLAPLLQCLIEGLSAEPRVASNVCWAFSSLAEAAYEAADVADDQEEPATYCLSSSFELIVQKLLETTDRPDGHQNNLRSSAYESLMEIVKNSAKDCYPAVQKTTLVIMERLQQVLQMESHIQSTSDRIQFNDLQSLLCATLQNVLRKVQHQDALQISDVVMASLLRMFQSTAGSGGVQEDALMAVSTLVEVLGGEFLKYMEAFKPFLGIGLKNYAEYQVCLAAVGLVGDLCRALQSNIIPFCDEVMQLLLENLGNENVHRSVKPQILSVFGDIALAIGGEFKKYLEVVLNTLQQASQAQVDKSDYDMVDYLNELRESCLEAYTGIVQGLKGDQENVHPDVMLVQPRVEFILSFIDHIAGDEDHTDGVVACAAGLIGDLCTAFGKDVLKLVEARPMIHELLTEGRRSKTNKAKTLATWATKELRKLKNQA
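Inhibition scored from the CFP 486 nm/YFP 530 nm FRET ratio 45 min after adding 0.125 microM importin beta to 50 nM Rango biosensor preincubated 5 min with compound (room temperature, PBS with DTT, Tween-20, BSA). No-importin wells as positive control.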
Rango dissoc inh = inhibitors of RanGTP-induced Rango-importin beta complex dissociation; O95149+P62826; Biochemical FRET Rango-importin beta, RanGTP-induced dissociation; Potency, µM (highest dose often 46.1 µM), inactives show at the highest dose activity change, negative = inhibition; 340,000 tested, 0.071% active; AID 540253; active means falling FRET ratio curve, often poorly fitted, with flat reads before Ran was added; inconclusive means other falling curves, or compound fluorescence or quenching; inactive means flat or rising ratio curve;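 note: potency is the fitted concentration of half-maximal effect; % of control where 0% means no effect; nearly all actives have a fitted effect of over 45% in size; -100% = wells without RanGTP and RCC1; the record marks most hits as doubtful in a second field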
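Recombinant Rango FRET biosensor (EYFP–snurportin 1 IBB–cerulean CFP10) at 0.1 uM premixed with 0.25 uM importin beta in PBS, 1 mM DTT, 0.02% Tween-20, 0.1% BSA. Compound added 5 min; RanGTP-RCC1 (0.6 uM Ran, 2 mM GTP, 0.2 uM RCC1) then triggers release, read at 45 min.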
Starred values were filed as active, the others as inactive; u = inconclusive; x = not tested or not shown; & = joins results of further samples.

Letter code: A = GLA inh pH 4.5; B = miR-21 FLuc; C = Rango-impB inh; D = Rango dissoc inh
smiles: Cc1csc(=NC(=O)c2ccccc2)n1CCO
  A = -7 | B = -5% | C = 2.8% | D = -7%

smiles: CC1=C([N+](=O)[O-])C(c2ccc(Cl)cc2)NC(=O)N1 (stereo not drawn)
  A = x | B = 8% | C = -2.3% | D = -8%

smiles: CC(=O)Oc1ccc(C(=O)Nc2ccccc2C(=O)Nc2ccc(C(=O)O)cc2)cc1
  A = x | B = 3% | C = -0.7% | D = -4%

smiles: Cc1ccc(CN2CCN(/N=C/c3cc([N+](=O)[O-])ccc3Cl)CC2)cc1
  A = 2 | B = 0% | C = 0.3% | D = 3%

smiles: CC(C)(C)NC(=O)C[C@H]1C[C@H](C(=O)N2CCCCC2)[C@@]2(C)c3[nH]c4cc(-c5ccco5)ccc4c3CCN2C1=O
  A = x | B = x | C = -1.2% | D = 0%

smiles: CC(=O)N1C(=S)NC(=O)/C1=C1/C(=O)N(CC(=O)Nc2cccc(C)c2)c2ccccc21
  A = -5 | B = -4% | C = u | D = -16%

smiles: Cc1ccc(Cn2nnc3c(=O)[nH]c(C4CCCN(S(=O)(=O)c5ccccc5)C4)nc32)cc1 (stereo not drawn)
  A = 1 | B = -64% | C = 1.6% | D = 1%

smiles: COC(=O)c1nc(N)sc1-c1ccc(Cl)c(Cl)c1
  A = -1 | B = -3% | C = -1.8% | D = -2%

smiles: CCN(CC)c1cc2nc(C)n(Cc3ccccc3)c(=O)c2cc1NC(=O)C1CC1
  A = 1 | B = -17% | C = 4.0% | D = -8%

smiles: Cc1ccc(C)c(OCC(O)CN2CCC(CN3C(=O)c4cccc5cccc(c45)C3=O)CC2)c1 (stereo not drawn)
  A = -29 | B = 0% | C = -2.2% | D = -4%

smiles: CN(C(=O)c1cccc(C#N)c1)c1nnc(-c2cnccn2)s1
  A = 3 | B = -4% | C = 13% | D = -8%

smiles: Cc1n[nH]c(C)c1S(=O)(=O)N1CCN(C2CCCCC2)CC1
  A = 0 | B = 1% | C = 0.6% | D = 1%

smiles: CC1=Nc2ccccc2/C1=C/c1c(C)[nH]c2ccccc12
  A = x | B = x | C = u | D = -6%

smiles: COc1ccc(S(=O)(=O)Nc2ccccc2C(=O)N2CCOCC2)cc1OC
  A = x | B = 1% | C = 2.8% | D = -8%

smiles: O=C(Cn1cncn1)N/N=C/c1ccccc1O
  A = -3 | B = -6% | C = 5.2% | D = 14%

smiles: O=C1CCCC2=C1C(O)(C(F)(F)F)C(=O)N2Cc1ccccc1 (stereo not drawn)
  A = 8 | B = -3% | C = 1.9% | D = -12%

smiles: O=C(OCC(=O)N1CCCCCC1)c1ccc([N+](=O)[O-])cc1Cl
  A = 8 | B = -6% | C = -0.1% | D = 19%

smiles: Clc1ccccc1OCc1nn[nH]n1
  A = -9 | B = 0% | C = 3.1% | D = 30%

smiles: COc1ccc(S(=O)(=O)N2CCCCCC2)cc1C(=O)N(C)Cc1c(F)cccc1Cl
  A = x | B = x | C = 3.8% | D = 13%

smiles: CCOCC(=O)Nc1ccc(F)c(F)c1
  A = 10 | B = 3% | C = -2.8% | D = 2%

smiles: Cc1nc2ccc(S(=O)(=O)Nc3cccc(-c4nc5cccnc5s4)c3)cc2s1
  A = 1 | B = -17% | C = 2.6% | D = 1%

smiles: O=C(c1cccc(-c2ccccc2F)c1)N1CC[C@@H](N2CCC(O)CC2)[C@H](O)C1
  A = x | B = -5% | C = -5.4% | D = -9%

smiles: CCCCN1CCC(COC(=O)c2cc(Cl)c(N)c3c2OCCO3)CC1
  A = -27 | B = x | C = -2.4% | D = 13%

smiles: COc1ccc(/C=N\NS(=O)(=O)c2ccc(C)cc2)cc1COc1ccccc1[N+](=O)[O-]
  A = -12 | B = -7% | C = u | D = -2%

smiles: CC(=O)c1ccc(NC(=O)/C(C#N)=C/c2ccncc2)cc1
  A = x | B = 4% | C = u | D = -17%

smiles: COc1cc(C(=O)Nc2ccc(C)cc2C(NCC(=O)NN)c2ccccc2)cc(OC)c1OC (stereo not drawn)
  A = x | B = 13% | C = 0.1% | D = -4%

smiles: Cc1ccc(C)c(N2C(=O)CN=C2Nc2ccccc2Cl)c1
  A = 3 | B = -4% | C = 0.3% | D = 5%

smiles: Cc1ccc(-c2ccc(/C=C3\C(=O)ON=C3c3ccccc3)o2)c([N+](=O)[O-])c1
  A = 2 | B = -7% | C = -0.8% | D = -7%

smiles: O=C(CCc1nnc(CCCCc2ccccc2)o1)NCCC1CCCCO1 (stereo not drawn)
  A = -8 | B = -5% | C = -0.6% | D = -16%

smiles: CCOc1ccc(N(CC(=O)O)S(=O)(=O)c2ccc(F)cc2)cc1
  A = -10 | B = -2% | C = 0.5% | D = 4%

smiles: COc1ccc(CSc2nnnn2C)cc1F
  A = 8 | B = -12% | C = 0.5% | D = 11%

smiles: O=C(O)Cc1cc(I)c(Oc2ccc(O)c(I)c2)c(I)c1
  A = 2&-3 | B = 13% | C = x | D = x

smiles: COCCCNS(=O)(=O)c1ccc(Oc2ncc(C(F)(F)F)cc2Cl)cc1
  A = -13 | B = 19% | C = -1.6% | D = -14%

smiles: FC(F)C(F)(F)Oc1cccc(-c2n[nH]c(=S)n2Cc2ccccc2)c1
  A = x | B = x | C = 1.6% | D = 5%

smiles: COc1ccc(SC[C@H](Cc2ccccc2)N2CC[C@@H](NC(=O)OCc3ccccc3)CCC2=O)cc1
  A = x | B = x | C = -0.5% | D = -13%

smiles: CC(C)OCCCNC(=O)C(C)Oc1ccccc1 (stereo not drawn)
  A = 0 | B = -3% | C = -0.3% | D = 5%

smiles: Cc1ccc(-n2c(N)c(C#N)c(-c3ccccc3)c(C#N)c2=O)cc1
  A = -1 | B = -12% | C = -1.3% | D = 0%

smiles: CN(C)CC1CCCCC1OC(=O)c1ccc(S(=O)(=O)N(C)c2ccccc2)cc1 (stereo not drawn)
  A = x | B = 0% | C = -2.0% | D = 1%

smiles: O=C(COc1ncnc2ccc(Br)cc12)N1CCOCC1
  A = 2 | B = -2% | C = 2.0% | D = -2%

smiles: COc1ccccc1NC(=O)CSc1nc2ccccc2n1C(C)=O
  A = 4 | B = -2% | C = 1.7% | D = 14%

smiles: CN1CCN(C(=O)c2ccc(CSc3ccc(Cl)cc3)cc2)CC1
  A = -6 | B = 16% | C = -4.3% | D = 1%

smiles: CCN(CCCNC(=O)CCCOc1cc(=O)n(C)c2ccccc12)Cc1ccccc1
  A = 14 | B = -2% | C = 0.2% | D = u

smiles: O=C(c1ccc2nc(Cc3cccc(Cl)c3)oc2c1)N1CCC(CO)CC1
  A = x | B = -8% | C = 5.1% | D = -4%

smiles: COc1ccc(CNC(C)C2COc3ccccc3O2)c(OC)c1 (stereo not drawn)
  A = -5 | B = -9% | C = 0.2% | D = 0%

smiles: Clc1ccc(COc2ccccn2)c(Cl)c1
  A = 8 | B = -24% | C = -0.6% | D = 7%

smiles: COc1ccc(-c2csc(NC(=O)CSc3nc(C)cs3)n2)cc1
  A = x | B = x | C = 0.4% | D = -1%

smiles: O=C(NC(=S)Nc1cccc2cc(O)ccc12)c1ccco1
  A = x | B = -8% | C = -2.7% | D = 2%

smiles: CCCc1c(-c2ccc(O)cc2)nn(-c2ccc(O)cc2)c1-c1ccc(O)cc1
  A = -3&1&-5 | B = 13% | C = -1.6% | D = 2%

smiles: Cc1cc(C)n(CC(=O)N2CCCC(C(=O)c3cccc(OC(C)C)c3)C2)n1 (stereo not drawn)
  A = 2 | B = 3% | C = 0.9% | D = 34%

smiles: O=C(c1ccc(N2CCN(C3CC(=O)N(c4ccc(F)cc4)C3=O)CC2)cc1)c1cccnc1 (stereo not drawn)
  A = 1 | B = 3% | C = x | D = x

Later entries.
Letter code: A = GLA inh pH 4.5; B = miR-21 FLuc; C = Rango-impB inh; D = Rango dissoc inh
smiles: COc1ccc(N2CC(C(=O)N[C@@H](C)C(=O)NC3CCCCC3)CC2=O)cc1 (stereo partly drawn)
  A = x | B = 0% | C = 6.3% | D = 7%

smiles: O=[N+]([O-])c1cc([N+](=O)[O-])c(Oc2cc(F)cc(F)c2F)cc1NN1CCCCC1
  A = x | B = 2% | C = 0.1% | D = -8%

smiles: Cc1ccc(NC(=O)COC(=O)CC2CCCC2)cc1F
  A = x | B = x | C = -0.8% | D = 24%

smiles: Cc1ccc2[nH]c3c(=O)n(Cc4ccccn4)cnc3c2c1
  A = -1 | B = -7% | C = -1.7% | D = 2%

smiles: Cc1ccc(C(=O)NCC(=O)OCC(=O)N2CCCc3ccccc32)cc1
  A = -1 | B = 4% | C = 0.7% | D = 2%

smiles: Cc1cc2ccccc2c(=O)n1CC(=O)NCC(=O)N1CCN(c2ccccc2)CC1
  A = -4 | B = 2% | C = -3.3% | D = -23%

smiles: O=C(Nc1ccc(Oc2cccnc2)cc1)c1ccc([N+](=O)[O-])cc1
  A = -1 | B = 0% | C = -1.3% | D = 0%

smiles: CCOC(=O)C1(Cc2ccccc2C)CCCN(C(=O)c2ccc3nccnc3c2)C1 (stereo not drawn)
  A = x | B = 6% | C = -0.1% | D = 17%

smiles: CCN(CC)S(=O)(=O)c1ccc(C)c(N=C=S)c1
  A = 0 | B = 1% | C = 1.3% | D = 11%

smiles: Cc1cc(NC(=O)CCCN2C(=O)/C(=C/c3ccccc3Cl)SC2=S)no1
  A = x | B = 5% | C = 4.6% | D = -4%

smiles: Cc1cccc(N2N=C(C(=O)N3CC(=O)Nc4ccccc43)CCC2=O)c1
  A = 4 | B = -1% | C = -2.3% | D = -14%

smiles: O=C(CCc1ccccc1)Nc1ccccc1
  A = 0 | B = -7% | C = -3.4% | D = 13%

smiles: Nc1nc2ccccc2n1C(=O)c1ccc(F)cc1
  A = -5 | B = 18% | C = -2.4% | D = 21%

smiles: Cc1cc(Cn2nnnc2-c2ccncc2)cc(C)c1O
  A = x | B = 0% | C = 4.7% | D = -10%

smiles: CC1(C(=O)N/N=C/c2ccc([N+](=O)[O-])o2)CC1(Br)Br (stereo not drawn)
  A = -12 | B = u | C = -3.5% | D = 1%

smiles: COCCNC(=O)C(C)Oc1ccc(Cl)cc1Cl (stereo not drawn)
  A = 14 | B = -12% | C = -1.4% | D = -2%

smiles: Cc1ccc(NC(=O)CN(C)C(=O)c2ccc(NS(=O)(=O)c3cccc([N+](=O)[O-])c3)cc2)cc1
  A = x | B = x | C = -2.7% | D = 1%

smiles: Cc1cc(NC(=O)CN2CCN(S(=O)(=O)c3ccc(Cl)cc3)CC2)no1
  A = 2 | B = -10% | C = 0.2% | D = -2%

smiles: CCC(C)NC(=O)c1ccc(CSc2nc3ccncc3n2Cc2ccc(F)cc2)cc1 (stereo not drawn)
  A = -5 | B = -15% | C = -0.1% | D = u

smiles: Cc1cc(NS(=O)(=O)c2ccc(C(C)C)cc2)no1
  A = x | B = -7% | C = 2.1% | D = -14%

smiles: Cc1ccc(NC(=O)C(C)N2C(=O)c3ccccc3C2=O)cc1S(=O)(=O)N1CCOCC1 (stereo not drawn)
  A = 0 | B = -7% | C = -3.7% | D = 0%

smiles: CCOc1ccccc1NC(=O)Nc1ccc(Br)cn1
  A = 8 | B = 0% | C = 8.2% | D = 0%

This is a subset (hit frequency here may not be typical).
